Mtb growth = Mycobacterium tuberculosis H37Rv growth inhibition, cell based, confirmatory dose response (AID 1949) | inhibition, % at 10 µg/mL; hits with a dose series show IC50 in µg/mL | hit rate 1.6% among 100,000 | most inactive calls were filed without a number and no value below 0 was filed;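 active means confirmed in a dose series; inconclusive means about 50% or more but not retested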;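 further: bacteria grown 7 days with compound before Alamar blue readout; 0% = untreated bacteria and 100% = reference antibiotic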
Starred values were filed as active, the others as inactive; i = inactive; ? = inconclusive. Some of the compounds tested; rates above refer to the full screens.

SMILES	Mtb growth
O=C(CSc1nnc(Cc2ccccc2)n1-c1ccccc1)NCc1ccccc1	i
O=C(Oc1ccc(Br)cc1)C1CCC(N2C(=O)C3C4C=CC(C4)C3C2=O)CC1 (stereo not drawn)	10.4%
CCN(Cc1ccncc1)C(=S)Nc1ccccc1	i
O=C(c1cccs1)c1cn(CCOc2ccccc2)c2ccccc12	i
CCCCNC(=O)CSc1nnc(-c2ccc(NC(=O)c3ccccc3Cl)cc2)n1C	i
CC(C)Oc1ccc(CNC(=S)Nc2ccccc2)cc1Cl	i
O=C(CCCOc1ccc(Cl)cc1Cl)Nc1ccccc1F	i
Cc1ccc(-c2cc(C(=O)N3CCc4ccccc4C3)no2)cc1	3.9%
O=C(CN1C(=O)c2ccccc2C1=O)Oc1c(-c2ccccc2)oc2ccccc2c1=O	?
CC(C)CCNC(=O)c1ccc(CN2CCOCC2)cc1	i
CCn1c(SCC(=O)Nc2ccc(Br)cc2C(C)C)nnc1C(NC(=O)c1ccc(C)cc1)C(C)C (stereo not drawn)	i
N#Cc1ccccc1COc1ccccc1CO	i
COc1ccc(S(=O)(=O)NCC#N)cc1	i
COc1ccc(Br)cc1C1NC(=S)NC(C)=C1C(=O)Nc1ccc(C)cc1C (stereo not drawn)	i
Cc1ccc2cccc(OCc3nnc(SCC(=O)O)n3C)c2n1	0.2%
Cc1ccc(NC(=O)CCC(=O)Nc2ccccc2C)cc1	i
CC(=O)Nc1ccc(S(=O)(=O)Nc2ccc(Cl)cn2)cc1	0.0%
Cc1[nH]c2ccc(OC(F)(F)F)cc2c1CCN	i
COc1ccc(CCNc2oc(-c3ccc(C)cc3)nc2C#N)cc1OC	i
CC1CCCCN1c1ccc(NC(=O)c2ccccc2F)cc1 (stereo not drawn)	i
NC(=O)C1CC(=O)N(c2ccc(OCC(=O)Nc3ccccc3F)cc2)C1 (stereo not drawn)	i
Cc1ccc(S(=O)(=O)N2CCN(C(=O)N3CCOCC3)CC2)c(C)c1	i
Cc1cc(C)c2oc(-c3ccc(NC(=O)/C=C/c4ccco4)cc3)nc2c1	i
CN(C)c1nc(NCc2ccccc2)nc(SCC(=O)Nc2ccccc2Cl)n1	i
COc1ccc(C(C)(C)c2ccc(O)cc2)cc1	7.0%
SMILES	Mtb growth
COc1ccc(CNCCc2ccccc2)cc1OCC(N)=O	i
CCOc1ccc(CN2CCN(C(C)CC)CC2)cc1 (stereo not drawn)	i
Cc1ccccc1C(=O)Nc1cccc(NC(=S)NC(=O)c2cncc(Br)c2)c1	i
COC(=O)COc1ccc2c(=O)c(Oc3ccccc3)c(C(F)(F)F)oc2c1	6.6µg/mL*
CCCCC(=O)Nc1cccc(NC(=O)CC)c1	9.7%
O=C(c1ccc(-c2ccccc2)cc1)c1ccccc1C(=O)N1CCCC1	i
NC(=O)CSc1nnnn1Cc1ccccc1	i
COc1cc(C(=O)NC(=S)Nc2sc3c(c2C#N)CCC(C(C)(C)C)C3)cc(OC)c1OC (stereo not drawn)	i
O=c1n(-c2ccccc2)c(=O)n2n1CCCC2	i
O=C(CCN1C(=O)c2ccccc2C1=O)Oc1ccc(Br)cc1	i
CSc1ncc(Cl)c(C(=O)N(Cc2ccccc2)Cc2ccco2)n1	i
CC(=O)Nc1ccc(S(=O)(=O)NCCc2c[nH]c3ccc(C)cc23)cc1	i
CCOc1ccc(OCc2ccc(C(=O)NCC3CCCO3)o2)cc1 (stereo not drawn)	i
CCc1cccc(C)c1NC(=O)CSc1nnc(-c2ccccc2)o1	i
CCOC(=O)c1ccccc1NC(=O)CN(c1ccc(OC)c(OC)c1)S(C)(=O)=O	i
COc1ccccc1NC(=O)CN(c1cccc(Br)c1)S(=O)(=O)c1ccc(C)cc1	i
CCn1c(CNC(=O)c2ccc(Cl)cc2Cl)nnc1SCC(=O)Nc1cccc(Cl)c1Cl	i
CCC(=O)NC(=S)Nc1ccc(NC(=O)COc2ccc(Cl)cc2Cl)cc1	?
O=c1c2ccccc2nc(CN2CCCCCC2)n1-c1ccc(F)cc1	i
O=C(CSc1nc2ccccc2n1-c1ccccc1)N1CCN(c2ccccc2)CC1	i
CNC(=O)c1cc(-c2ccc(OC)c(OC)c2)nc2ccccc12	i
Cc1ccc(Cl)cc1N1CCN(CC(O)COC(C)C)CC1 (stereo not drawn)	12.3%
Cc1ccc(S(=O)(=O)N(CC(=O)Nc2ccccc2C(C)C)c2ccc(Cl)cc2C)cc1	i
O=C(Nc1cccc(Cl)c1Cl)C1CCN(C(=O)c2ccc(F)cc2)CC1	i
Cc1csc(NC(=O)Nc2ccc(F)cc2)n1	i

Among those listed so far, 10 have an aryl thioether with sulfur outside any ring:
SMILES	Mtb growth
O=C(CSc1nnc(Cc2ccccc2)n1-c1ccccc1)NCc1ccccc1	i
CCCCNC(=O)CSc1nnc(-c2ccc(NC(=O)c3ccccc3Cl)cc2)n1C	i
CCn1c(SCC(=O)Nc2ccc(Br)cc2C(C)C)nnc1C(NC(=O)c1ccc(C)cc1)C(C)C (stereo not drawn)	i
Cc1ccc2cccc(OCc3nnc(SCC(=O)O)n3C)c2n1	0.2%
CN(C)c1nc(NCc2ccccc2)nc(SCC(=O)Nc2ccccc2Cl)n1	i
NC(=O)CSc1nnnn1Cc1ccccc1	i
CSc1ncc(Cl)c(C(=O)N(Cc2ccccc2)Cc2ccco2)n1	i
CCc1cccc(C)c1NC(=O)CSc1nnc(-c2ccccc2)o1	i
CCn1c(CNC(=O)c2ccc(Cl)cc2Cl)nnc1SCC(=O)Nc1cccc(Cl)c1Cl	i
O=C(CSc1nc2ccccc2n1-c1ccccc1)N1CCN(c2ccccc2)CC1	i

Of the compounds above, two have a CF3 group:
SMILES	Mtb growth
Cc1[nH]c2ccc(OC(F)(F)F)cc2c1CCN	i
COC(=O)COc1ccc2c(=O)c(Oc3ccccc3)c(C(F)(F)F)oc2c1	6.6µg/mL*

Additional entries follow.
SMILES	Mtb growth
CCOC(=O)C1CCCN(S(=O)(=O)c2ccc(OC)c(Cl)c2)C1 (stereo not drawn)	i
CC1CN(C2CCN(Cc3ccccc3[N+](=O)[O-])CC2)CC(C)O1 (stereo not drawn)	0.5%
N#Cc1ccc(NS(=O)(=O)c2ccc(F)cc2)cc1	i
COc1ccc(CCNS(=O)(=O)c2ccc3c(c2)OCCO3)cc1OC	i
CC(C)NC(=O)c1cccc2ccccc12	i
N#Cc1c(SCC(=O)Nc2ccccc2)ncc2cc3ccccc3nc12	i
O=C(Nc1ccc(Br)cc1F)C1CC1c1ccccc1 (stereo not drawn)	0.9%
O=C(Nc1ccc(CCC(=O)N2CCCC2)cc1)c1ncn[nH]1	i
CCc1nc(SCc2ccc(C(=O)OC)o2)n[nH]1	3.1%
O=C(O)c1cccc(NC(=O)c2ccc(S(=O)(=O)N3CCCCC3)cc2)c1	i
Cc1cc(C(=O)CSc2n[nH]c(N)n2)c(C)n1-c1cc(F)ccc1F	i
CCCCCn1c(NCc2cccs2)nc2ccccc21	3.41µg/mL*
O=C(NCCCN1CCCC1=O)c1cc(-c2ccccn2)nc2ccc(Br)cc12	i
Cc1ccc(NC(=O)CSc2nnc(N)s2)cc1	i
Cc1sc2nc(/C=C/c3ccccc3)oc(=O)c2c1C	i
COc1ccc(NC(=O)C(=O)NCCN2CCOCC2)cc1	i
Cc1cc(C)c(C#N)c(SCC(O)CS(=O)(=O)Cc2ccccc2)n1 (stereo not drawn)	i
O=[N+]([O-])c1cccc(COc2ccc(Br)cc2)c1	i
CC(=O)Nc1c(Cl)cc(C23CC4CC(CC(C4)C2)C3)cc1Cl	0.2%
COC(=O)c1c(NC(=O)c2c(-c3ccccc3)noc2C)sc2c1CCC2	i
COc1ccc(NC(=O)CSc2nc3c(c(-c4cccs4)c2C#N)CN(C)CC3)cc1OC	i
O=C(COC(=O)c1ccc(F)cc1)c1ccc(Cl)cc1	i
Cc1c(Cl)cccc1NC(=O)CSCC(=O)Nc1ccc2ccccc2c1	i
CC(O)Cn1c2ccccc2c2cc(Cl)ccc21 (stereo not drawn)	27.5%
Cc1onc(-c2ccccc2Cl)c1C(=O)Oc1cc(F)cc(F)c1	3.9%
SMILES	Mtb growth
Cc1ccc(C(=O)Nc2ccccc2C(N)=O)cc1	2.1%
O=C(NCc1ccc(Cl)cc1)c1cccc(NC(=O)c2ccccc2)c1	i
Cc1cc(C)nc(N(C#N)C(C)C(=O)N(C)C)n1 (stereo not drawn)	11.1%
O=C(CSc1nnc(-c2ccco2)c(-c2ccco2)n1)Nc1ccc(F)cc1	i
c1ccc(Cc2ccc(OCCNC3CCCC3)cc2)cc1	i
O=C(c1ccc(F)c(F)c1)N1CCc2ccccc2C1	0.3%
CSc1nnc(-c2sc3cc(Cl)ccc3c2Cl)n1C	i
Cc1c(C)c2ccc(OCc3ccc(F)cc3F)c(C)c2oc1=O	i
CCOC(=O)C1=C(C)N=c2s/c(=C/c3ccc(C(=O)OC)cc3)c(=O)n2C1c1ccc(OC(C)=O)cc1 (stereo not drawn)	i
N#Cc1nc(-c2cccc(Cl)c2)oc1N1CCCC1	i
COc1cc(Cc2nccc3cc(OC)c(OC)cc23)c(NC(=O)c2cccs2)cc1OC	i
CCn1c2c(c3ccc(OC)cc31)CCCC2=O	i
CCCCc1ccc(NC(=S)N2CCCC(C)C2)cc1 (stereo not drawn)	i
CCOC(=O)c1cnc2c(C)cc(C)cc2c1NCCO	i
O=C(CSc1nnc(Cc2cccs2)n1-c1ccccc1)NC1CCCCC1	i
Cc1ccn2cc(-c3cccc(NS(C)(=O)=O)c3)nc2c1	i
COc1ccc(Cl)cc1NC(=S)N1CCC(Cc2ccccc2)CC1	i
N/C(=N\OC(=O)c1ccc(Br)o1)c1cccnc1	i
COc1ccc(Br)cc1C(=O)Nc1ccc(-c2nnc(-c3ccco3)o2)cc1	1.1%
O=C(CSc1nc2ccccc2o1)NCc1ccc2c(c1)OCO2	1.3%
COc1ccc(NC(=O)CNS(=O)(=O)c2c(C)cc(C)cc2C)c(OC)c1	i
CC(=O)c1ccc(N2C(=O)CC(Sc3ccccc3C(=O)O)C2=O)cc1 (stereo not drawn)	i
CC1CCc2c(C(=O)Nc3ccc(C(F)(F)F)cc3)csc2C1 (stereo not drawn)	7.3%
CCc1nnc(NC(=O)c2ccccc2Sc2ccccc2C#N)s1	i
C=CCc1ccccc1OCCOCCNCCCOC	i

4 entries picked at random from the list so far, as already listed:
SMILES	Mtb growth
N#Cc1nc(-c2cccc(Cl)c2)oc1N1CCCC1	i
CCc1nnc(NC(=O)c2ccccc2Sc2ccccc2C#N)s1	i
CCOC(=O)C1=C(C)N=c2s/c(=C/c3ccc(C(=O)OC)cc3)c(=O)n2C1c1ccc(OC(C)=O)cc1 (stereo not drawn)	i
CCCCc1ccc(NC(=S)N2CCCC(C)C2)cc1 (stereo not drawn)	i

Additional structures:
SMILES	Mtb growth
O=[N+]([O-])c1cccc(C(=S)N2CCN(c3cccc(Cl)c3)CC2)c1	i
Fc1ccc(N2CCN(Cc3cc4c(cc3Br)OCO4)CC2)cc1	2.9%
O=C(COc1ccccc1)Nc1ccc2nc(SCC(=O)Nc3nccs3)sc2c1	1.5%
N#C/C(=C\c1cc2ccccc2oc1=O)c1nc2ccccc2[nH]1	i
CCC(C)NC(=O)c1ccccc1NC(=O)CN(c1cc(OC)ccc1OC)S(C)(=O)=O (stereo not drawn)	i
O=C(Nc1ncc2c(n1)CC(c1ccc(F)cc1)CC2=O)c1ccc(Cl)cc1 (stereo not drawn)	i
O=C(NC(=S)Nc1cc(Cl)c(O)c(Cl)c1)c1cccc(OCc2ccccc2)c1	i
COc1cc2c(cc1OC)-c1nnc(-c3ccco3)n1C1(CCCC1)C2	i
Cc1cccc(NC(=S)NCCc2ccc(Cl)cc2)c1C	i
O=C(NCc1ccccn1)c1csc2ccccc12	0.0%
CN1C(=O)C(O)(CC(=O)c2ccc(Br)cc2)c2ccccc21 (stereo not drawn)	i
O=C1N/C(=N/N=C/c2ccccc2Cl)SC1Cc1cccc(Cl)c1 (stereo not drawn)	49.5%
COC(=O)C1=C(C)Nc2ncnn2C1c1sccc1C (stereo not drawn)	i
CCOc1ccc(NC(=O)CN(C)S(=O)(=O)c2cc(Cl)ccc2Cl)cc1	i
COc1cccc(NC(=O)CSc2nnc(CNC(=O)c3ccc(Cl)cc3)n2C)c1	1.3%
COc1ccc(-n2c(O)cnc2Nc2nc(C)cc(C)n2)cc1OC	i
CC(C)Cc1ccc(S(=O)(=O)Nc2ccccc2Br)cc1	i
O=C(Nc1nc(-c2ccc(F)cc2)cs1)c1cnccn1	?
CC1CN(C(=O)c2ccc(COc3ccc4ccccc4c3)o2)CC(C)O1 (stereo not drawn)	i
CC(C)(C)c1ccc(S(=O)(=O)Nc2ccc(O)c(-c3c(O)ccc4ccccc34)c2)cc1	i
CCc1ccccc1NC(=O)C1CCN(C(=O)c2ccc(F)cc2)CC1	i
O=C(COc1ccc(Br)cc1)Nc1ccccc1N1CCCCC1	i
Cc1cc(Br)ccc1OCC(=O)N1CCN(c2ccccn2)CC1	25.8%
Cc1cc(C)n2c(nc3ccccc32)c1C(=O)O	i
CCn1c2ccccc2c2nnc(SCCCn3c(=O)[nH]c4ccccc43)nc21	i
SMILES	Mtb growth
O=C1CC(N2CCC(c3nc4ccccc4[nH]3)CC2)C(=O)N1c1ccccc1F (stereo not drawn)	i
CC(C)NS(=O)(=O)c1ccc(NC(=O)c2ccc(-c3ccccc3)cc2)cc1	i
COc1ccccc1Nc1nc(N)nc(CSc2nc3ccccc3s2)n1	i
COc1ccc(C(=O)Nc2ccc(-c3nnc4c5ccccc5c(C)nn34)cc2)cc1	0.3%
Cc1ccc(OCc2cc(C(=O)O)oc2C)cc1	i
Cc1ccc2nc(-c3ccc4c(c3)OCO4)cc(C(=O)NC3=NCCS3)c2c1	45.0%
Cc1c(Cl)cccc1NC(=O)C(=O)NC1CC1	i
O=C(c1cc([N+](=O)[O-])ccc1NCc1cccnc1)N1CCOCC1	i
Cc1nnc(SCC(=O)Nc2cc(Cl)ccc2C)s1	i
COc1cc(OC)c(NC(=O)COc2ccc(Cl)cc2C)cc1Cl	i
COCCNC(=O)CN(c1ccccc1)S(=O)(=O)c1ccc(Cl)cc1	i
CC(=O)c1c(C)nn(CC(O)COc2ccc3cc(Br)ccc3c2)c1C (stereo not drawn)	i
CCCOc1ccccc1Nc1ncnc2ccc(Br)cc12	i
CC(=O)c1ccccc1NS(=O)(=O)c1cccs1	4.8%
COC(=O)Nc1nn(Cc2ccccc2F)cc1Br	i
CSc1oc(-c2ccco2)nc1S(=O)(=O)c1ccccc1	i

Source: PubChem (Southern Research Institute)
